# Screening data: PubChem BioAssay, several laboratories
# Arbovirus anti – antivirals against arbovirus infection, primary screen, cell-based, full library, 10K replicate subset | inhibition, % at 10 µM | 0.37% of 200,000 active | AID 1251, 2008 | arbovirus infection cell-based antiviral screen;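 active = inhibition from about 30%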;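 also: bluetongue infection of BSR cells; cell survival read as ATP light after 72 h; 0% = infected wells without compound and 100% = uninfected wells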
# YopH inh – YopH tyrosine phosphatase inhibitors, primary screen, biochemical, fluorescence Ex485/Em525. YopH tyrosine phosphatase [Yersinia enterocolitica]. inhibition, %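 (about 10 µM by stock and volumes)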. 0.16% of 140,000 active;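 active = inhibition of 50% or more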;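 also: controls were vehicle for no effect and minimum signal wells for full effect; inactives centre near -20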
# Mtb H37Rv – M. tuberculosis H37Rv growth inhibitors, H37Rv strain (AID 1626); M. tuberculosis H37Rv growth inhibition; higher % means a stronger effect; 0.95% of 220,000 active; inhibition, % at 10 µM, or IC50 in µM where a hit was titrated;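 active = confirmed in a dose series; inconclusive = inhibition above 80% but not taken into the dose series; inactive = below 80% or under 30% at every dose of the series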;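 also: bacteria incubated seven days before Alamar blue readout; 0% = bacteria only wells and 100% = bacteria with antibiotic wells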
# Mtb bLac sens – beta-lactam sensitization of Mtb H37Rv, H37Rv; 0.27% of 330,000 active; AID 434955, 2010; M. tuberculosis H37Rv growth with meropenem, percent inhibition; hits of this screen are not shown here; inhibition, % at 25 µM;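 active = about 74% or more and at least 40 points above the plate without the antibiotic, then above 30% in a dose series; inconclusive = first-round hits that could not be retested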;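 also: growth measured after seven days incubation then overnight dye step; 0% = bacteria only wells and 100% = bacteria with antibiotic; twin plates without the antibiotic show which effects depend on it; some results filed as inactive read as strong as hits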
# RecA splice inh – Mtb RecA intein splicing inhibitors, primary screen, biochemical, fluorescence, HTS; AID 2221, 2009; cell-free RecA intein splicing; 0.75% of 290,000 active; Protein RecA (Mycobacterium tuberculosis (strain ATCC 25618 / H37Rv)), P9WHJ3; inhibition, %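 (about 9 µM by stock and volumes)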; in the data active = inhibition above about 30%; inconclusive = no clear call, values can overlap the other calls;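 also: 0% = vehicle wells and 100% = reference inhibitor control wells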
# Target sequence (P9WHJ3 whole entry, looked up, canonical isoform): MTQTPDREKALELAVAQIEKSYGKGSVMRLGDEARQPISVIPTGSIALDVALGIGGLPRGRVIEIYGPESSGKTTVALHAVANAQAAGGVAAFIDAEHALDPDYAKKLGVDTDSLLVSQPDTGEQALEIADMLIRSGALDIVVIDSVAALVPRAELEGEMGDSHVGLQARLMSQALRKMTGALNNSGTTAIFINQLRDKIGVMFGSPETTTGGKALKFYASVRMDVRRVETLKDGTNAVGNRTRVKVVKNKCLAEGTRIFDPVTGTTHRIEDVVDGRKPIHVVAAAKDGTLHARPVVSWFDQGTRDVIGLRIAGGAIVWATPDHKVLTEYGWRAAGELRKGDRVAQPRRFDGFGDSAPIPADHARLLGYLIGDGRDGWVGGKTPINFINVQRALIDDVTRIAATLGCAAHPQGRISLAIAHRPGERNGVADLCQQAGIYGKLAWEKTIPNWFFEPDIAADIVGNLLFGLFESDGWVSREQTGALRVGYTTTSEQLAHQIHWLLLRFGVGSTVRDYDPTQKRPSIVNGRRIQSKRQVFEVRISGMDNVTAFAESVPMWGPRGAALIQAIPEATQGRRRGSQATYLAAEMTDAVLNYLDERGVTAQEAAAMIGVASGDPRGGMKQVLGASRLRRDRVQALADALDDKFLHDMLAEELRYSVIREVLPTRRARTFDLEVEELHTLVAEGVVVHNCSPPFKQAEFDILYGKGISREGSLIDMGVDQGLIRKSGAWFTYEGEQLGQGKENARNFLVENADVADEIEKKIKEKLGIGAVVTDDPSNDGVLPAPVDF
# Arbovirus anti repeat – second read-out of Arbovirus anti, no call of its own (marks repeat the call); inhibition, %; measured here: 10K subset replicate screen; many hits read low in the repeat;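 first of two repeat runs on a subset; 0% = infected and 100% = uninfected wells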
# * marks the source's active call; other numbers are inactive results; ? = inconclusive; / = not tested or not shown. These rows are one share of the data, so the mix of outcomes need not match the whole.
SMILES,Arbovirus anti,YopH inh,Mtb H37Rv,Mtb bLac sens,RecA splice inh,others
CC(C)C(c1nnnn1C(C)(C)C)N1CCOCC1 (centres undefined),12.3,-17.1,-9.7%,8.1,-2.8,
COc1ccc(-c2nnn(CC(=O)NCc3ccc4c(c3)OCO4)n2)cc1OC,12.6,/,5.5%,-0.7,-1.0,
CC(NC(=O)/C(=C/c1ccc2c(c1)OCO2)NC(=O)c1cccc([N+](=O)[O-])c1)C(=O)O (centres undefined),3.7,/,-5.4%,-3.0,-1.0,
O=C(NCc1ccccc1)c1c(Cl)nc(Cl)c(Cl)c1Cl,/,/,/,93.0,2.9,
Cc1nn(CC(=O)NCC(C)c2ccccc2)c(=O)c2cc(-c3ccccc3)nn12 (centres undefined),/,/,/,3.0,0.7,
COc1ccc(NC(=S)NC(=O)/C=C/c2cccs2)cc1,25.1,/,4.7%,0.5,-1.8,
CCOc1ccc(NC(=O)Cc2ccccc2)cc1,-7.9,-33.0,5.3%,-0.9,-0.1,
CCn1cc(CNc2nc3nonc3nc2N2CCCCC2)cn1,3.3,/,0.3%,0.5,-0.8,
C/C(=N\NC(=O)c1nnn(-c2nonc2N)c1CN(C)c1ccccc1)c1ccc(O)cc1,/,/,/,-1.1,4.7,
CCOC(=O)c1cc(-c2ccccc2)n(CC(=O)Nc2cccc(OC)c2)c1C,-5.2,-37.5,0.6%,7.1,-3.1,

# As a short view, part of the list above:
SMILES,Arbovirus anti,YopH inh,Mtb H37Rv,Mtb bLac sens,RecA splice inh,others
COc1ccc(-c2nnn(CC(=O)NCc3ccc4c(c3)OCO4)n2)cc1OC,12.6,/,5.5%,-0.7,-1.0,
CC(NC(=O)/C(=C/c1ccc2c(c1)OCO2)NC(=O)c1cccc([N+](=O)[O-])c1)C(=O)O (centres undefined),3.7,/,-5.4%,-3.0,-1.0,
O=C(NCc1ccccc1)c1c(Cl)nc(Cl)c(Cl)c1Cl,/,/,/,93.0,2.9,
Cc1nn(CC(=O)NCC(C)c2ccccc2)c(=O)c2cc(-c3ccccc3)nn12 (centres undefined),/,/,/,3.0,0.7,
COc1ccc(NC(=S)NC(=O)/C=C/c2cccs2)cc1,25.1,/,4.7%,0.5,-1.8,
CCOc1ccc(NC(=O)Cc2ccccc2)cc1,-7.9,-33.0,5.3%,-0.9,-0.1,
CCn1cc(CNc2nc3nonc3nc2N2CCCCC2)cn1,3.3,/,0.3%,0.5,-0.8,

# (further entries)
SMILES,Arbovirus anti,YopH inh,Mtb H37Rv,Mtb bLac sens,RecA splice inh,others
O=c1c2ccccc2nc2n1CCCS2,1.2,-44.0,-15.7%,2.1,0.0,
Cc1c([N+](=O)[O-])ccc(S(=O)(=O)N2CCC(C(N)=O)CC2)c1C,10.1,-26.2,-5.0%,1.0,-3.1,
O=C(NCCCN1CCOCC1)c1ccc(-n2nc(C(F)(F)F)cc2-c2cccs2)cc1,-48.5,-5.1,0.4%,2.6,1.8,
O=C1NC(=Nc2cccnc2)S/C1=C\c1cccc(F)c1,/,/,-4.1%,-6.2,3.0,
CCCCCN(C(=O)CCC(=O)OCCOc1cccc(Cl)c1)c1c(N)n(CCCC)c(=O)[nH]c1=O,/,/,/,0.7,-0.6,
CCCNC(=O)CN1CCN(c2cc3ccccc3c(Cl)n2)CC1,/,/,/,-0.3,4.7,
CC(NC(=O)c1ccco1)C(c1cccs1)N1CCN(c2ccccc2F)CC1 (centres undefined),15.1,-30.4,-3.0%,-0.5,5.7,
O=C(CCCc1c[nH]c2ccccc12)NCc1ccccc1C(F)(F)F,/,/,/,2.8,0.6,
CC(=O)NCC(=O)N(C)C(C(=O)Nc1ccc2c(c1)OCCO2)c1ccc(C)cc1 (centres undefined),5.5,/,2.2%,-3.0,1.1,
CC(Sc1ccccc1)C(=O)N1CCN(S(=O)(=O)c2cccc(Br)c2)CC1 (centres undefined),/,/,/,-6.7,4.2,
Cc1ccccc1CN1CCN(c2ccc(Cl)cc2)CC1,-4.0,-18.8,6.6%,-0.6,3.4,
CCOC(=O)CSC1=C(C#N)C(c2sccc2C)C(C(C)=O)=C(C)N1 (centres undefined),11.0,4.7,4.9%,7.1,2.7,
COCCN1C(=O)C(=O)/C(=C(/O)c2ccc(S(=O)(=O)N3CCCCC3)cc2)C1c1ccc(O)c(OC)c1 (centres undefined),/,/,/,-1.3,-6.2,
O=C(C(=O)N1CCOCC1)c1cn(CCOc2ccccc2)c2ccccc12,0.1,/,2.3%,-5.8,1.5,
CC(C)(C)C1CCc2c(sc3c2C(=O)NC(c2ccco2)N3)C1 (centres undefined),7.5,-7.4,-4.0%,0.9,1.9,
COc1cccc(CN2CCN(Cc3cccc(F)c3)CC2)c1,/,/,/,4.5,-0.1,
COCc1cc(=O)[nH]c2cc(NC(=O)c3cccc(OC)c3)c(C)cc12,/,/,/,-0.4,-1.8,
COc1ccc(C)cc1COC(=O)c1[nH]c(C)c(C(C)=O)c1C,/,/,/,3.1,1.1,
Cc1cnc(NC(=O)c2sc(Nc3ccccc3)nc2N)o1,/,/,-5.8%,-4.4,2.3,
O=C(O)c1ccccc1C(=O)Nc1ccc(Br)c2cccnc12,-2.8,/,?,34.6,4.3,
COc1ccc(S(=O)(=O)N2Cc3ccccc3CC2C(=O)O)cc1 (centres undefined),15.4,-19.6,-4.5%,5.5,4.2,
CCOC(=O)Cn1nnnc1C(C(C)C)N(Cc1cc2c(C)cc(C)cc2[nH]c1=O)C1CCCC1 (centres undefined),11.8,-25.5,3.8%,-11.3,-6.7,
C=CCn1cc(C(=O)OC)c(=O)c2cc(S(=O)(=O)N3CCC(C)CC3)ccc21,/,-43.6,-1.2%,-0.8,2.0,
Cn1c2c(c(=O)n(C)c1=O)C(c1ccc(C(F)(F)F)cc1)CC(=O)N2 (centres undefined),/,/,-9.4%,-7.1,0.6,
Cc1noc(C)c1CSCC(=O)OCC(=O)NC1CCCCC1,-0.5,-9.5,2.1%,3.3,0.5,Arbovirus anti repeat=-0.1
Oc1ccc(C=Nc2ccc(N3CCOCC3)cc2)c(O)c1,-13.9,-9.7,/,-1.7,-7.1,
CCn1c2ccccc2c2cc(NC(=O)c3cccc(OC)c3)ccc21,-17.6,-9.7,6.7%,12.6,3.3,
CCO[C@@H]1OC(C(=O)NCc2nc3ccccc3[nH]2)=C[C@H](C)[C@H]1CCCO,-3.3,/,-13.5%,-5.7,-0.9,
COc1ccccc1-c1c(C)oc2cc(OCC(=O)OCc3ccccc3)ccc2c1=O,0.8,-0.5,?,99.7,-2.3,
CC(=O)N1N=C(c2cccs2)CC1c1cccc([N+](=O)[O-])c1 (centres undefined),-0.4,/,-7.6%,-0.8,2.6,

# The list goes on, overlapping the part above by 4 compounds.
SMILES,Arbovirus anti,YopH inh,Mtb H37Rv,Mtb bLac sens,RecA splice inh,others
CCn1c2ccccc2c2cc(NC(=O)c3cccc(OC)c3)ccc21,-17.6,-9.7,6.7%,12.6,3.3,
CCO[C@@H]1OC(C(=O)NCc2nc3ccccc3[nH]2)=C[C@H](C)[C@H]1CCCO,-3.3,/,-13.5%,-5.7,-0.9,
COc1ccccc1-c1c(C)oc2cc(OCC(=O)OCc3ccccc3)ccc2c1=O,0.8,-0.5,?,99.7,-2.3,
CC(=O)N1N=C(c2cccs2)CC1c1cccc([N+](=O)[O-])c1 (centres undefined),-0.4,/,-7.6%,-0.8,2.6,
O=C(CSCc1c(Cl)cccc1Cl)N1CCOCC1,-4.2,/,-0.2%,0.5,1.9,
C=CCN(c1ccccc1C(=O)O)S(=O)(=O)/C=C/c1ccccc1,1.1,/,-5.5%,-6.8,1.1,
COc1ccc(CNC(=O)CSc2ncn[nH]2)cc1,4.8,-52.0,-2.9%,-4.8,-1.0,
Cc1nn(Cc2ccccc2Cl)c(C)c1NC(=O)c1ccn(C)n1,-5.7,-37.0,1.5%,-0.9,0.7,
Cc1cc(C(=O)NCc2ccccc2F)cs1,-2.6,-11.4,15.9%,-1.2,-0.6,
CS(=O)(=O)N(CC(=O)NCCSc1ccccn1)c1ccc(F)cc1,1.0,/,-7.3%,0.3,-1.2,
CCCCn1nc2cc(C(=O)NCc3ccc(OC(F)(F)F)cc3)ccc2c1OC,11.9,-35.1,1.1%,10.2,1.3,
CCOC(=O)C1Cc2c([nH]c3ccccc23)C(C)N1 (centres undefined),6.7,10.1,-7.6%,2.8,2.6,
COc1ccc(OC)c(/C=N/NC(=O)CNC(=O)c2ccc(S(=O)(=O)N3CCOCC3)cc2)c1,-2.1,-17.2,-3.3%,-0.4,-3.6,
Nc1c(C(=O)N2CCCCCC2)oc2ccccc12,/,/,/,-5.0,-0.2,
O=C(NCC(=O)N(Cc1cccs1)C(C(=O)NC1CCCC1)c1ccncc1)c1ccco1 (centres undefined),1.1,-13.3,-5.2%,0.6,8.3,
CN=C(C)/C(C(=O)OC)=C(/O)c1c(F)cccc1F,/,/,-12.9%,22.2,/,
CC(=O)Nc1ccc(NC(=O)CSc2nnc(-c3cccs3)n2C)cc1,/,/,/,0.2,-0.1,
O=C(O)c1ccccc1C(=O)c1ccc(N2CCOCC2)c([N+](=O)[O-])c1,5.5,/,3.6%,-0.5,0.1,
O=C(c1cccc(Oc2ccc([N+](=O)[O-])cc2)c1)N1CCOCC1,/,/,/,-20.1,0.0,
COc1ccc(-c2cc(C(=O)NCc3ccccc3)no2)cc1OC,-10.4,-21.0,-4.6%,/,1.4,
COc1ccc2cc3c(N)nn(C(=O)c4cccc(F)c4)c3nc2c1,/,/,3.2%,-1.8,-2.5,
CCCN1CCN(C(=O)CCn2c(=O)c3cccn3c3cccnc32)CC1,/,/,/,3.0,0.4,
Cc1sc(NC(=O)c2cccs2)nc1-c1ccccc1,4.2,0.9,2.0%,-8.6,0.6,
CCOc1ccc2nc(N=NC3=C(O)CC(C)(C)CC3=O)sc2c1,-29.3,/,?,99.3,/,
O=C1CCN(Cc2ccc([N+](=O)[O-])cc2)CCN1[C@H](CO)Cc1ccccc1,/,/,/,-11.4,0.4,
CCOc1ccc(-c2nc(C#N)c(N3CCN(C)CC3)o2)cc1,4.7,-8.5,-4.5%,6.1,-0.6,
CC(C)(C)c1ccc(C(=O)N2CCC(=O)N(C(COCc3ccccc3)Cc3ccccc3)CC2)cc1 (centres undefined),-35.3,-13.4,8.8%,-13.8,20.6,
CCOc1ccc(-n2c(CC)nc3ccccc3c2=O)cc1,3.7,-26.0,1.3%,-3.0,-4.2,Arbovirus anti repeat=-1.8
O=C(O)COCC(=O)Nc1ccc(-n2cnnn2)cc1,10.9,/,0.5%,-6.7,-0.6,
O=C(CN1C(=O)c2ccccc2S1(=O)=O)NC1CCCCC1,/,/,/,1.6,-6.7,
O=C(CNC(=O)c1ccc(Br)o1)Nc1ccncc1,/,/,/,4.3,-0.5,
CN(C)c1ccc(CN2CCC(C(N)=O)CC2)cc1,2.6,/,0.3%,1.1,-0.5,
O=C(O)CN1C(=O)/C(=C\c2cc(Br)ccc2OCc2ccccc2F)SC1=S,/,/,/,?,10.9,
O=C(c1ccc(Cl)c(S(=O)(=O)N2CCCCCC2)c1)N1CCCC(C(F)(F)F)C1 (centres undefined),/,/,/,-7.8,5.2,
CN(C)c1[nH]c(=O)c(C#N)c2c1CCN2Cc1ccccc1,3.7,-27.6,-0.7%,12.5,2.4,
N/C(=N\OC(=O)Nc1ccccc1)c1ncc(C(F)(F)F)cc1Cl,-0.8,-12.0,-11.5%,32.3,0.9,
CN1CCCN(C(=O)COc2ccc(F)cc2Cl)CC1,/,/,/,-4.1,-1.1,
CN(c1cccc(NC(=O)Cc2ccccc2)c1)S(C)(=O)=O,2.1,-30.3,-10.1%,2.7,-0.9,
CN(C)c1ccc(/C=C2\CC3C4CC=C5CC(O)CCC5(C)C4CCC3(C)C2=O)cc1 (centres undefined),-23.8,-22.0,12.3%,4.5,-1.7,
N#CCCN(C(=O)COC(=O)CCN=C1NS(=O)(=O)c2ccccc21)c1ccc(F)cc1,/,/,/,-0.5,-0.9,
